MARV entry inh = blocks Marburg virus binding to or entry into cells. Marburg virus pseudotyped entry inhibition, cell reporter; control for the full effect not named in the record; about a third of the inactives were read at about 46 µM. Potency, µM (highest dose often 37.8 µM), for the others: at the top dose activity change, negative = inhibition, hits mostly inhibitors. actives 1.8% (n = 300,000); active = well fitted inhibition curve with a large enough effect; inconclusive = small, poorly fitted or top-dose-only effect, or effect the other way; inactive = flat fitted curve, though single readings scatter; tested in HEK293 cells; about a fifth of its hits are not listed in these tables; also: % is scaled to controls: 0 for no effect and ±100 for the full control effect; luciferase read-out
StopGo reporter = lowers the luciferase signal of an FMDV 2A StopGo reporter | human cells with a luciferase reporter of 2A StopGo recoding; control for the full effect not named in the record | Potency, µM (highest dose often 57.9 µM), inactives show top-dose signal change, negative = less light | actives 1.2% (n = 410,000); active = well fitted falling curve with a large enough effect; inconclusive = small, poorly fitted or top-dose-only effect; inactive = no such curve, though single readings can be large or run the other way; tested in HEK293T cells; also: % is scaled to controls: 0 for no effect and ±100 for the full control effect; nearly all actives have a fitted effect of over 45% in size; luciferase light after 4 h
Cruzain noTriton = blocks cruzain activity in detergent-free assay; actives 2.3% (n = 200,000); P25779; purified cruzain, Z-FR-AMC fluorescence, no detergent; Potency, µM, inactives show max response, negative = inhibition, most hits filed as inhibitors; AID 1476; active = well fitted curve in the direction sought with a large enough effect; inconclusive = small, poorly fitted or top-dose-only effect, or another doubt; inactive = no such curve, though single readings can be large; an effect the other way counts as inactive or inconclusive;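 also: plate controls were enzyme without inhibitor for no effect and buffer without enzyme for full effect; nearly all actives have a fitted effect of over 40% in size; top concentration of the series not given in the record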
Target sequence (P25779 123-467 limits assumed): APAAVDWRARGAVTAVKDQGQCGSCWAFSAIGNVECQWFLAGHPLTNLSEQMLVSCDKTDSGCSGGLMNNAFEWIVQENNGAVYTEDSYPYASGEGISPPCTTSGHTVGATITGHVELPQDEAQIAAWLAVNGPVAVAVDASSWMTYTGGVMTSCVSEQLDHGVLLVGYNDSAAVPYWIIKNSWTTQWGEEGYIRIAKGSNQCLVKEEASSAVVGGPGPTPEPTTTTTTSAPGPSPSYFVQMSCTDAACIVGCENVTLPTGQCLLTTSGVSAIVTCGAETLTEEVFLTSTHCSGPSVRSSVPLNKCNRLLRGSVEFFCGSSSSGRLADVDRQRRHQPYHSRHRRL
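Purified cruzain at 1.5 nM, pre-incubated 15 min with compound at room temperature in 100 mM sodium acetate pH 5.5, 5 mM DTT, 0.00005% Triton X-100. Reaction started with 2 uM Z-FR-AMC; AMC fluorescence increase over 60 s gives rate.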
RE007 growth inh = less growth of the S. pombe RE007 Vpr strain; S. pombe RE007 Vpr strain, BacTiter-Glo ATP luminescence, 24 h; control for the full effect not named in the record; Potency, µM (doses to about 92.2 µM), for the others: at the top dose activity change, negative = less growth; actives 0.21% (n = 360,000); active = well fitted falling curve with a large enough effect; inconclusive = small, poorly fitted or top-dose-only effect; inactive = no such curve, though single readings can be large or run the other way;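 also: % is scaled to controls: 0 for no effect and ±100 for the full control effect; nearly all actives have a fitted effect of over 50% in size; the assay follows cell death caused by Vpr and the record does not say whether a fall means rescue or toxicity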
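Fission yeast RE007 carrying one integrated HIV-1 vpr copy, seeded at OD 0.01 in PMG+AL medium with 23 nL pinned compound. Grown 24 h at 30 degrees; viability read by BacTiter-Glo luminescence after 5 min.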
Lassa entry inh = inhibitors of Lassa virus binding or cell entry | AID 540256 | Potency, µM (highest dose often 37.9 µM), for inactives: top-dose activity change, negative = inhibition, actives largely listed as inhibitors | actives 1.2% (n = 300,000) | Lassa virus pseudotype entry inhibition, cell reporter; control for the full effect not named in the record; active means well fitted inhibition curve with a large enough effect; inconclusive means small, poorly fitted or top-dose-only effect, or effect the other way; inactive means flat fitted curve, though single readings scatter; tested in HEK293 cells; also: % is scaled to controls: 0 for no effect and ±100 for the full control effect; nearly all actives have a fitted effect of over 50% in size; luciferase read-out
NS1 function inh = blocks influenza NS1 protein function | AID 2326 | actives 0.4% (n = 270,000) | Potency, µM (doses to about 46.1 µM), without a hit: at the highest dose activity, positive = more growth | S. cerevisiae slowed by influenza A NS1, growth recovery by OD600; also: actives are rising curves; nearly all actives have a fitted effect of over 50% in size
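Read-out: OD600 growth recovery of NS1-expressing budding yeast. Cells grown overnight at 30C in -URA glucose medium, washed, resuspended and diluted 1:100 in 2% galactose assay medium, pH 6.0. Same strain lacking NS1 served as positive control.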
Cruzain Triton = cruzain (T. cruzi) inhibition with detergent | P25779 | purified cruzain, Z-FR-AMC fluorescence, 0.01% Triton | Potency, µM, inactives show max response, negative = inhibition, most hits filed as inhibitors | actives 0.43% (n = 200,000) | AID 1478; active = well fitted curve in the direction sought with a large enough effect; inconclusive = small, poorly fitted or top-dose-only effect, or another doubt; inactive = no such curve, though single readings can be large; an effect the other way counts as inactive or inconclusive;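 also: plate controls were neutral wells for no effect and buffer without enzyme for full effect; nearly all actives have a fitted effect of over 40% in size; top concentration of the series not given in the record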
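Z-FR-AMC hydrolysis (2 uM substrate) by cruzain (1.5 nM) monitored kinetically at ex 360/em 450 nm after 15 min room-temperature compound exposure; 0.01% Triton X-100, pH 5.5, 5 mM DTT.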
SARS PLpro yeast = SARS-CoV PLP inhibition in yeast. S. cerevisiae expressing SARS-CoV PLpro, growth rescue; control for the full effect not named in the record. Potency, µM (highest dose often 32.9 µM), for the others: top-dose activity, positive = growth rescue. actives 0.19% (n = 330,000). AID 485353; also: 0% is about no effect; nearly all actives have a fitted effect of over 55% in size; growth read by luminescence after 48 h
* hit, by the source's call; ? = inconclusive; · = not tested or not shown; & = joins results of further samples; [ ] = remark or other dose. Unless noted, calls follow the shape of the dose curve; as a rule, active means well fitted rising curve with a large enough effect; inconclusive means small, poorly fitted or top-dose-only effect; inactive means no such curve, though single readings can be large or run the other way. Potency is read from the fitted curve at half-maximal effect.

SMILES	MARV entry inh	StopGo reporter	Cruzain noTriton	RE007 growth inh	Lassa entry inh	NS1 function inh	Cruzain Triton	SARS PLpro yeast
COc1ccccc1N1CCN(/N=C/C(Cl)=C/c2ccccc2)CC1	?	-4%	·	-14%	?	0%	·	-4%
O=C(NC1CCS(=O)(=O)C1)c1ccc(S(=O)(=O)N2CCCC2)cc1 (stereo unspecified)	6%	0%	·	0%	4%	-14%	·	0%
Cc1cccc(NC(=O)CSc2cccc[n+]2[O-])c1C	11%[46.1 µM]	0%	·	4%	9%[46.1 µM]	·	·	3%
O=C(O)CNC(=O)C(Cc1ccccc1)NC(=O)OCc1ccccc1 (stereo unspecified)	12%[46.1 µM]	-8%	·	16%	-11%	·	·	2%
CCOC(=O)C1=C(O)CSC1=Nc1cccc(Cl)c1	?	-24%	-9%	5%	1%	-9%	2.4%	-4%
O=C(c1ccccc1)N1CCN(Cc2ccccc2Br)CC1	0%[46.1 µM]	-15%	4%	-12%	7%	-11%	4.8%	4%
Cc1[nH]n(-c2ccccc2)c(=O)c1-c1ccccc1	?	2%	-3%	13%	7%	1%	0.5%	12%
Cc1ccc(N(CCC(=O)NC(C)(C)C)S(=O)(=O)c2ccc(C)cc2)cc1	-6%[46.1 µM]	-1%	·	-8%	-10%[46.1 µM]	·	·	-2%
CCOC(=O)c1c(NC(=O)CCl)sc(C(=O)N(CC)CC)c1C	-8%	20µM*	-7%	11%	?	-2%	-2.1%	23%
CC[C@@H](C)C(NC(=O)OC(C)(C)C)c1cn([C@@H](CCCCNC(=O)OC(C)(C)C)C(=O)N2CCN(C(=O)OC(C)(C)C)CC2)nn1 (stereo partly specified)	·	0%	·	-19%	·	-2%	·	-1%

Record cards (already shown):
O=C(c1ccccc1)N1CCN(Cc2ccccc2Br)CC1 reads MARV entry inh = 0%[46.1 µM]; StopGo reporter = -15%; Cruzain noTriton = 4%; RE007 growth inh = -12%; Lassa entry inh = 7%; NS1 function inh = -11%; Cruzain Triton = 4.8%; SARS PLpro yeast = 4%
COc1ccccc1N1CCN(/N=C/C(Cl)=C/c2ccccc2)CC1 reads MARV entry inh = ?; StopGo reporter = -4%; Cruzain noTriton = ·; RE007 growth inh = -14%; Lassa entry inh = ?; NS1 function inh = 0%; Cruzain Triton = ·; SARS PLpro yeast = -4%
O=C(O)CNC(=O)C(Cc1ccccc1)NC(=O)OCc1ccccc1 (stereo unspecified) reads MARV entry inh = 12%[46.1 µM]; StopGo reporter = -8%; Cruzain noTriton = ·; RE007 growth inh = 16%; Lassa entry inh = -11%; NS1 function inh = ·; Cruzain Triton = ·; SARS PLpro yeast = 2%

More compounds.
SMILES	MARV entry inh	StopGo reporter	Cruzain noTriton	RE007 growth inh	Lassa entry inh	NS1 function inh	Cruzain Triton	SARS PLpro yeast
COc1ccc(-c2c(C#N)c(SCC(=O)Nc3cccc(Cl)c3)nc(C)c2C(=O)Nc2ccccc2)cc1OC	-22%[46.1 µM]	-20%	?	·	11%[46.1 µM]	·	-11%	·
COc1ccc(CNC(=O)C2CCN(S(=O)(=O)N3CCC4(CC3)OCCO4)CC2)c(OC)c1	?	0%	1%	61%	?	-20%	-0.1%	-30%
CN(Cc1ccccc1F)C(=O)c1sccc1-c1ccccc1	·	20%	·	11%	·	0%	·	-3%
CC1(C)Cc2c(cnn2-c2ccccc2)C(NC(=O)c2ccc[n+]([O-])c2)C1 (stereo unspecified)	20%	-22%	·	4%	1%	21%	·	0%
CC1(C)CC(NS(=O)(=O)c2ccc(F)cc2)CC(C)(C)N1	4%[46.1 µM]	0%	·	8%	1%[46.1 µM]	-1%	·	0%
COc1ccc(-c2noc(CN3CCN(c4ccccc4)CC3)n2)cc1	·	-28%	3%	9%	·	-30%	-0.1%	2%
CCN(c1ccccc1)S(=O)(=O)c1ccc(-c2cc(C)no2)s1	·	?	-7%	·	?	·	-6.3%	·
COc1cc(/C=C/C(=O)OCC(=O)Nc2cccc(Oc3ccccc3)c2)ccc1O	?	5%	?	-6%	?	14%	-1.6%	25%
CC1CCCCN1C(=O)CCn1c(=S)oc2ccccc21 (stereo unspecified)	3%	12%	·	1%	-1%	-3%	·	1%
COCCNC(=S)NNc1cccc(C(=O)O)c1	3%	3%	·	-13%	?	·	·	1%

Structures from the list above that contain an aryl thioether with sulfur outside any ring:
SMILES	MARV entry inh	StopGo reporter	Cruzain noTriton	RE007 growth inh	Lassa entry inh	NS1 function inh	Cruzain Triton	SARS PLpro yeast
Cc1cccc(NC(=O)CSc2cccc[n+]2[O-])c1C	11%[46.1 µM]	0%	·	4%	9%[46.1 µM]	·	·	3%
COc1ccc(-c2c(C#N)c(SCC(=O)Nc3cccc(Cl)c3)nc(C)c2C(=O)Nc2ccccc2)cc1OC	-22%[46.1 µM]	-20%	?	·	11%[46.1 µM]	·	-11%	·

The results go on:
SMILES	MARV entry inh	StopGo reporter	Cruzain noTriton	RE007 growth inh	Lassa entry inh	NS1 function inh	Cruzain Triton	SARS PLpro yeast
COc1ccc(NC(=O)c2oc3ccccc3c2NC(=O)c2cc(C)cc(C)c2)c(OC)c1	-1%[46.1 µM]	3%	-11%	·	7%[46.1 µM]	·	0.4%	·
CCc1ccccc1-n1nnc(-c2ccccc2)n1	·	-15%	·	3%	·	3%	·	8%
CCc1ccc(NC(=O)CSc2nc(=O)n(CCN(C)C)c3c2CCCC3)cc1	13µM*	35%[activator]	·	-16%	?	·	·	-3%
CCOC(=O)Cn1c(=O)oc2cc(S(=O)(=O)N3CCCC(C)C3)ccc21 (stereo unspecified)	2%&2%[46.1 µM]	19%&2%	-2%	-5%	11%[46.1 µM]	?	3.6%	2%
O=C(Cc1ccccc1)Nc1cccc(C(=O)N/N=C/c2ccco2)c1	29%	-1%	18%	12%	-18%	10%	-3.9%	0%
COc1ccccc1NC(=O)C(=O)NCC1CCCN1S(=O)(=O)c1cccs1 (stereo unspecified)	-7%	-6%	·	17%	0%	·	·	-2%
CC(NC(=O)Nc1nnc(C(F)(F)F)s1)N1C(=O)C2C3C=CC(C3)C2C1=O (stereo unspecified)	19%	-15%	10%	3%	-9%	-1%	0.0%	8%
CN1CCN(C(=O)/C=C/c2ccc3c(c2)OCO3)CC1	10%	11%	-22%	7%	1%	26%	-8.7%	?
Cn1nnnc1Sc1ccc([N+](=O)[O-])cc1Cl	?	-23%	·	9%	-7%	·	·	0%
CC1(C(=O)O)CCC(C(=O)N2CCCCC2)C1(C)C (stereo unspecified)	?	14%	·	1%	8%	2%	·	-1%
COc1ccc(C)cc1-n1nnc(C(=O)Nc2cccc(SC)c2)c1C	-23%[46.1 µM]	?	2%	·	-3%[46.1 µM]	·	-2.7%	·
Clc1ccc(Nc2ncnc3c2nnn3Cc2ccccc2)cc1	2%[46.1 µM]	-1%	·	15%	-24%[46.1 µM]	4%	·	0%
CCCCn1c(SCC(=O)OCC)nc2c(sc(=S)n2-c2ccccc2OC)c1=O	-3%	-7%	·	-11%	8%	13%	·	-6%
C[C@H]1CN=C(Nc2ccccc2)N1CCCC1CCCC1	·	-27%	·	-9%	·	-21%	·	-5%
COc1cccc2c1cc1c(=O)n(CC(=O)NCc3ccco3)nc(C)n12	-2%[46.1 µM]	1%	-2%	·	·	·	-1.7%	·
COc1ccc2c(c1)C(=O)N(c1ccc(C)cc1C)C(=O)C2(C)C	-28%[46.1 µM]	-16%	·	-1%	0%	-83%	·	-3%
CCOC(=O)C1(CCc2ccccc2)CCN(Cc2ccc(O)cc2)CC1	·	?	·	-11%	·	-3%	·	0%
Cc1cccc2cc(C#N)c(SCC(=O)N3CC(=O)Nc4ccccc43)nc12	?	?	25µM*	-2%	?	5%	-3.5%	4%
CN1C(=O)NC(c2ccccc2)(C(F)(F)F)S/C1=C(/C#N)c1nnc(N2CCOCC2)n1-c1ccccc1 (stereo unspecified)	9%	?	29%	-8%	·	-2%	?	22%
c1ccc(CCc2nc(-c3ccncc3)no2)cc1	21%	11%	5%	-3%	?	-34%	1.9%	-3%
CCn1c(=O)c2c(O)cc(=O)oc2c2ccccc21	-3%	-14%	-6%	?	?	-50%	-4.0%	-8%
CC12CC(NC(=O)N1c1ccc(C(=O)N3CCN(c4ccc(F)cc4)CC3)cc1)c1ccccc1O2 (stereo unspecified)	-2%&-12%	?	?	5%	-14%	-5%	0.2%	6%
CCCC(=O)NC(=S)Nc1cccc(Cl)c1N1CCCC1	?	-25%	·	-6%	?	·	·	2%
C#CCSc1nnc(-c2cccc3ccccc23)o1	?	47%[activator]	·	-21%	4%	-54%	·	·
Cc1ccc(-c2[nH]nc3c2C(C)C(C#N)=C(N)O3)cc1 (stereo unspecified)	-4%	-9%	13%	·	9%	?	-7.4%	7%
Cc1sc2nc(C(C)Sc3nnc(C)n3-c3ccccc3)[nH]c(=O)c2c1C (stereo unspecified)	0%	·	-13%	·	·	-5%	-2.8%	2%
Cc1cc(C)c(OCC(=O)OCC(=O)N(C)C2CCS(=O)(=O)C2)c(C)c1 (stereo unspecified)	?	-10%	·	5%	2%	·	·	-2%
CCOC(=O)Nc1ccc(OCc2nnc3c4ccccc4c(C)nn23)cc1	4%[46.1 µM]	-6%	·	17%	-4%	0%	·	1%
COc1ccc(NC(=O)c2cc(S(=O)(=O)N3CCCC3)c[nH]2)cc1	·	15%	·	9%	·	8%	·	7%
COc1ccc(Br)cc1C(=O)Nc1cccc(-c2nnc(-c3ccco3)o2)c1	21µM*	·	·	0%	-8%	-36%	·	·
COc1ccc2c(c1)c(C(=O)N/N=C/c1cn(C)c3ccccc13)c(C)n2C	-15%[46.1 µM]	-25%	·	1%	-25%	6%	·	1%
COc1cc2c(cc1OC)CN(C(=O)c1ccc(OC)c(S(=O)(=O)N3CCOCC3)c1)CC2	-2%&14%	43%[activator]	?	-1%	-8%	-12%	8.6%	14%

Source: PubChem BioAssay (National Center for Advancing Translational Sciences (NCATS))
